From PubChem BioAssay
RanGTP-Impb inh = disruptors of Ran-importin-beta complex formation – biochemical, FRET, CFP-Ran, YFP-importin-beta, homogeneous, primary screen. cell-free CFP-Ran/YFP-importin-beta FRET ratio. inhibition, % (test concentration not listed). 300,000 tested, 1.1% active;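 active = most replicates above 15%; inconclusive = exactly half above 15%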;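 note: 0% = DMSO wells and 100% = Ran loaded with GDP instead of GTP; wells of about 40 µL received 100 nL stock; the first replicate is given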
Beta apoptosis = blocks beta cell apoptosis; AID 435005; 300,000 tested, 0.8% active; protection from apoptosis, % (no concentration beside the values); INS-1E cytokine-induced death, ATP luminescence, 48 h; percent of positive-control rescue, neutral wells zero;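 active = all replicates at 75% or more, or half of them and the mean; inconclusive = half reach 75% but not the mean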;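 note: 0% = cytokine-treated negative control wells and 100% = positive control rescue; higher means more ATP so stronger rescue from cytokine killing; wells of about 40 µL received 100 nL stock; the first replicate is given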
Bfl-1 A1 inh = inhibitors of the anti-apoptotic protein A1, read as caspase activation. caspase activation, % (test concentration not listed). MEF A1-2A-BIM cells, Caspase-Glo 3/7 luminescence, 3 h; percent of clofoctol response, vehicle zero. 330,000 tested, 0.066% active;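 active = over half of replicate activation scores above 10%, or exactly half above 10 with the replicate mean above 10; inconclusive = replicate mean below 10 yet half the replicates above 10; inactive = over half of replicates below 10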;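 note: wells of about 30 µL received 50 nL stock; many hits fall short of the cut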
MLL AF4-AF9 inh = MLL-AF4/AF9 protein interaction inhibition | inhibition, % at 10 µM | P42568 | AlphaScreen, biotin-AF4 peptide binding to FLAG-AF9 | 350,000 tested, 0.47% active | AID 651704;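 active = every replicate reaching a set inhibition limit, whatever the replicate mean, cut at about 25% in these data; inconclusive = mean inhibition reaches that limit but some replicates miss it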;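 note: 0% = plate neutral control median and 100% = total signal loss; the record names both 10 and 1 µM as test concentration; the first replicate is given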
Target sequence (P42568 whole entry, looked up): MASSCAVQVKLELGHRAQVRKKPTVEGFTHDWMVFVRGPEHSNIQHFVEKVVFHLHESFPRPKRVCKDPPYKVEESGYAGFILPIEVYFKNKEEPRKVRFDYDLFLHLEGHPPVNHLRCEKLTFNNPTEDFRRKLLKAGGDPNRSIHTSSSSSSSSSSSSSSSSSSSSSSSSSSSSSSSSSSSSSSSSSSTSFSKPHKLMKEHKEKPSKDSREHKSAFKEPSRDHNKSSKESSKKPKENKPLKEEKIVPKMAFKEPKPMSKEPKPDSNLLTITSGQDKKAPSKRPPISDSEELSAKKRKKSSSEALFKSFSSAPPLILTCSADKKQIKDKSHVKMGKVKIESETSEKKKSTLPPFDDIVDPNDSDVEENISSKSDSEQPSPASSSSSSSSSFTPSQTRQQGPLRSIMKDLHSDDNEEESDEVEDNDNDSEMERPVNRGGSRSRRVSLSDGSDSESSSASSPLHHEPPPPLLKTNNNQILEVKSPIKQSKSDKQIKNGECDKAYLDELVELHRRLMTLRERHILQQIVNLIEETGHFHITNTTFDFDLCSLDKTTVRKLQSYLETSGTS
T cruzi inh = T. cruzi replication inhibition. T. cruzi beta-gal in NIH3T3, luminescence, 90 h. inhibition, % (no concentration beside the values). 300,000 tested, 1.4% active;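 active = mean inhibition across valid replicates above about 55%, limit read from the data; inconclusive = mean below that limit but half or more replicates reach it; inactive = mean below it, under half of replicates reach it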;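 note: signal also drops with host cell toxicity which is not excluded here; 0% = plate median of DMSO wells and 100% = zero luminescence signal; higher percent means less beta-gal luminescence so fewer parasites; stock transfer was 50 nL into about 50 µL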
Vif TR-FRET = inhibitors of Vif binding to APOBEC3G peptide, primary screen, biochemical, TR-FRET, GST-Vif 1-94, biotin-A3G peptide, dose response retest (AID 1117319). inhibition, %, or IC50 in µM where a hit was titrated. TR-FRET GST-Vif / biotin-A3G peptide binding; higher % means a stronger effect; test concentration not given here; strong numbers were not always called active. 260,000 tested, 0.57% active;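 active = above the screen mean plus three standard deviations and confirmed in dose response; inconclusive = results disagree or hit not tested in dose response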;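 note: Vif residues 1-94 fused to GST binding biotinylated APOBEC3G peptide 110-148; 0% = full assay without inhibitor and 100% = GST in place of GST-Vif; retest series ran down from 100 µM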
Ecoli rRNA inh = inhibitors of bacterial rRNA selective over humanized ribosomes; E. coli WT GFP vs humanized-ribosome RFP mutants, fluorescence, 24 h; active compounds read low; DMSO median 0, no signal -100; GFP signal change (wild-type ribosome), % (concentration not given with the values); 350,000 tested, 1.6% active;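 active = significant combined selectivity score with lowered wild-type GFP, culture density cut under 30%, mutant RFP and density less affected; inactive = any of these conditions unmet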; note: one replicate is shown; some compounds called inactive have numbers as strong as hits
Calb FLC = C. albicans growth modulation with fluconazole. C. albicans CaCi-2 (fluconazole-resistant clinical isolate) + fluconazole, Alamar Blue growth, 48 h. growth inhibition, % (no concentration beside the values). 300,000 tested, 0.57% active. AID 1979;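 active = most replicates above 75%; inconclusive = exactly half above 75%; inactive = most below 75%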;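 note: all wells also contain fluconazole at 8 µg/ml as a sub-toxic cotreatment; 0% = median of DMSO wells and 100% = median of geldanamycin control wells; wells of about 8 µL received 7.5 nL stock; the first replicate is given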
Ecoli rRNA inh OD600 = second read-out of Ecoli rRNA inh, no call of its own (marks repeat the call); OD600 change, %; measured here: OD600 growth;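 optical density of the mix in the first replicate; 0 = DMSO median and -100 = no signal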
Ecoli rRNA inh RFP = second read-out of Ecoli rRNA inh, no call of its own (marks repeat the call); RFP signal change, %; measured here: RFP humanized mutant strains;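 first replicate; 0 = DMSO median and -100 = no signal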
Active calls of the source: *; ? = inconclusive; nt = not tested or not shown; & = joins results of further samples.

Molecule,Ecoli rRNA inh,Ecoli rRNA inh RFP,RanGTP-Impb inh,MLL AF4-AF9 inh,Bfl-1 A1 inh,Vif TR-FRET,Calb FLC,Ecoli rRNA inh OD600,Beta apoptosis,T cruzi inh
Cc1cc(C)n(-c2nc3c(c(=O)[nH]c(=O)n3C)n2CC(O)COc2ccccc2C)n1 (stereo unspecified),nt,nt,nt,nt,1.6,1%,2,nt,-5,-4
CCOC(=O)c1cccc(C2=CC(=O)C[C@H](c3ccc(Cl)cc3)C2)c1,-2,-3.1,nt,2.9,0.0,nt,nt,-3,2,nt
Cc1ccc(S(=O)(=O)N2CCC(=O)N(CCOCc3ccccc3C)CC2)cc1,nt,nt,-1.0,nt,-1.2,nt,4,nt,1,-5
CCN(CC(=O)Nc1c(F)cccc1F)C(=O)c1cc(C)nc2ccccc12,16,0.1,0.3,-1.2,-0.1,-2%,-9,14,-3,-9
O=C1c2oc3ccc(F)cc3c(=O)c2C(c2ccc(F)cc2)N1CCCN1CCOCC1 (stereo unspecified),2,-0.8,-0.8,3.9,-0.1,nt,-9,9,-6,-18
Brc1cccc(Cn2c(-c3cncs3)nc3ccccc32)c1,nt,nt,-2.3,nt,-0.2,-58%,-11,nt,-2,-6
NCCOc1cnn(-c2ccccc2Cl)c(=O)c1Cl,nt,nt,3.0,nt,0.1,nt,11,nt,-12,0
COc1ccccc1C1(CC(=O)N2CCOCC2)CCOC(C(C)C)C1 (stereo unspecified),nt,nt,-2.2,nt,0.1,2%,-5,nt,-5,3
O=C(CCCN=C1NS(=O)(=O)c2ccccc21)OCc1cc([N+](=O)[O-])cc2c1OCOC2,-7,-5.1,?,2.1,-1.3,-3%,-2,-7,7,5
COc1c(N2CCN(C(=S)NCc3ccccc3)C(C)C2)c(F)cc2c(=O)c(C(=O)O)cn(C3CC3)c12 (stereo unspecified),nt,nt,3.1,nt,1.1,-13%,16,nt,31,28
CC(C)c1c(C(=O)N/N=C/c2ccco2)nnn1-c1nonc1N,8,2.3,-1.2,0.0,0.3,0%,3,7,-6,-14
COc1ccc(C2CC(c3ccccc3O)=NN2c2ccccc2)cc1 (stereo unspecified),-21*,-1.5*,1.0,-1.6,0.6,nt,-1,-0.7*,2,27
CC/C(=N\Nc1ccnc2cc(Cl)ccc12)c1ccc(O)cc1,3,3.9,-5.1,5.5,-0.3,nt,-15,0,-11,6
COc1ccccc1N(CC(=O)NC(C)(C)C)C(=O)Cn1nnc(-c2ccc(C)o2)n1,nt,nt,-1.6,nt,0.4,-1%,3,nt,-3,1
CC1CN(c2ccc(S(=O)(=O)N3CCOCC3)cn2)CC(C)O1 (stereo unspecified),nt,nt,-0.3,nt,0.6,8%,-3,nt,-4,-7
OC(C#CCCN1CCCCC1)(c1ccccc1)c1ccccc1,3,-0.3,-0.1,-1.4,0.4,nt,-1,-6,nt,-7
COc1ccc(CN(C)C(=O)c2cc(-c3ccc(C)cc3C)nc3ccccc23)c(OC)c1OC,-1,5.7,3.5,1.1,-0.9,nt,9,-13,9,8
CCC(=O)N1CCc2cc(Br)cc(S(=O)(=O)N3CCC(C(=O)NC(C)(C)C)CC3)c21,9,-1.6,-0.3,-5.4,-0.8,nt,-1,2,2,14
NC(=O)CCC1NC(=S)N(Cc2ccccc2)C1=O (stereo unspecified),-1,0.4,1.9,-1.5,-0.4,20%,-3,9,0,-5
CC/C(=N\NC(=O)CSCc1ccc(Cl)cc1)c1ccc2c(c1)OCCO2,nt,nt,2.3,nt,-0.5,-16%,-2,nt,1,2
CCOc1cc(/C=N/NC(=O)c2ccc(N(C)S(=O)(=O)c3ccccc3)cc2)ccc1OC,-15,-0.7,5.1,2.8,0.4,-1%,-11,-6,-2,-3
c1ccc(-c2cc(-c3ccncc3)nc3ccc4ccccc4c23)cc1,5,1.5,-1.1,2.2,-0.2,-13%,3,10,0,36
COc1cc(C(=S)N2CCC(Cc3ccccc3)CC2)ccc1OCC(N)=O,-8,0.4,-3.6,3.2,-0.5,2%,9,-13,nt,0
COC(=O)c1ccc(N2CCC(C)CC2)c(N)c1,nt,nt,5.1,nt,0.3,31%,-33,nt,-5,20
Cc1c2cn[nH]c(=O)c2c(C)n1-c1ccccc1,1,-0.3,3.1,0.8,0.4,3%,-3,0,nt,-5
Cc1ccc(Cl)cc1N1CCN(C(=O)Cn2ccc3ccccc3c2=O)CC1,nt,nt,4.3,nt,-1.0,-2%,-4,nt,-5,17
COc1ccc(S(=O)(=O)Nc2ccc3c(c2)CC(=O)N([C@H](C)CO)C[C@H](C)[C@H](CN(C)C(=O)Nc2ccc4c(c2)OCO4)O3)cc1,3&7,1.3&-9.6,nt,-0.1,-0.6,nt,nt,-1&2,0,nt
CSCC[C@H](NC(=O)C1CCC(CNC(=O)[C@@H]2CCCN2C(=O)OC(C)(C)C)CC1)C(=O)O (stereo partly specified),12,0.0,2.5,5.5,0.4,1%,-1,15,-2,-8
Cc1cccc2cc(CN(Cc3cccs3)Cc3nnnn3Cc3ccccc3)c(=O)[nH]c12,nt,nt,?,nt,-0.3,18%,21,nt,8,63*
O=S(=O)(NCC(c1cccnc1)N1CCOCC1)c1ccccc1 (stereo unspecified),-3,-1.8,-1.9,-2.5,-0.8,nt,-5,12,-1,-13
O=S(=O)(NC(=S)c1ccccc1)c1ccccc1,nt,nt,-0.2,1.5,-0.5,nt,-1,nt,nt,-13
CC(C)(C)c1cc(=O)n(-c2ccccc2)[nH]1,12,-6.9,nt,1.4,0.3,8%,nt,12,-9,nt
O=C(NCc1ccco1)[C@@H]1CSC2c3ccccc3C(=O)N21 (stereo partly specified),nt,nt,-1.5,nt,0.5,24%,-3,nt,-9,-2
COc1cccc(C(=O)N(C)C(C)c2nc3ccccc3s2)c1 (stereo unspecified),-7,0.8,-8.6,-7.0,-0.2,nt,4,-15,-3,-6
COc1ccc(N(CC(=O)Nc2cccc3ccccc23)S(C)(=O)=O)cc1,0,-0.4,4.6,4.9,0.3,nt,10,4,-6,-13
CN1C2CCC1/C(=C/c1cccn1C)C(=O)/C2=C\c1cccn1C,51,12,-120,43*,0.1,15%,-8,-3,7,0
Cc1ccc(NC(=O)CN(C)Cc2ccc(Cl)cc2)cc1,-30*,1.6*,2.8,-1.7,-0.2,9%,-5,-20*,1,3
O=C(CN1C(=O)C2C3C=CC(C3)C2C1=O)Nc1ccc(S(=O)(=O)Nc2nccs2)cc1 (stereo unspecified),9,-3.4,4.7,-5.7,0.6,nt,-10,4,-10,-23
COc1cc(C(=O)OCC(=O)N2c3ccccc3NC(=O)C2(C)C)ccc1OCC(C)C,-1,1.4,nt,2.2,-0.4,7%,12,-10,5,-4
Cc1sc2ncnc(OCC(=O)c3ccc(S(=O)(=O)N4CCCC4)cc3)c2c1C,nt,nt,5.6,nt,0.1,-7%,11,nt,2,15
O=C(COC(=O)CSc1ccc2ccccc2c1Br)NC1CC1,-28,-6.3,-3.1,-3.2,0.2,nt,20,-27,1,-6
CCOc1ncccc1C(=O)OCC(=O)Nc1cccc(S(N)(=O)=O)c1,7,-2.0,-2.4,-16,-0.2,-9%,-2,4,-10,5
COc1ccccc1C(=O)N/C(=C\c1ccccc1)C(=O)NC(Cc1ccccc1)C(=O)O (stereo unspecified),-2,-2.9,1.1,-0.8,1.0,nt,-1,3,-7,-5
Cc1noc(C)c1COC(=O)C1CCN(C(=O)c2ccc(Cl)cc2)CC1,-3,-1.1,5.7,1.4,-0.6,-4%,45,-4,3,23
CCN(CC(=O)Nc1ccc(NC(C)=O)cc1)C(=O)CCCSc1nc2ccccc2[nH]1,3,-0.2,3.4,-13,1.0,3%,-3,8,-1,-17
COc1ccc2c(Cl)c(C(N)=O)sc2c1,nt,nt,-1.5,nt,-2.1,-34%,-2,nt,-2,-8
COCCNC(=O)C(c1ccco1)N(C(=O)Cn1nnc2ccccc21)c1cccc(C)c1C (stereo unspecified),nt,nt,4.7,nt,0.0,2%,5,nt,0,1
CC(=O)Nc1ccc(/C=C/c2nc(-c3ccccc3O)n[nH]2)cc1,-5,-2.2,8.0,-0.9,-2.4,nt,-5,4,-2,9
C[C@H](CO)N1C[C@H](C)[C@@H](CN(C)C(=O)Nc2ccc(C(F)(F)F)cc2)Oc2ccc(NC(=O)c3ccncc3)cc2C1=O,-1&-1,-0.9&-4.2,nt,-2.3&5.7,0.3,nt,nt,-2&2,1,nt
O=C(C[n+]1ccc(C(=O)c2ccccc2)cc1)Nc1ccccc1OC(F)F,-3,2.5,nt,-0.3,0.3,6%,nt,-11,-3,nt

Next part
Molecule,Ecoli rRNA inh,Ecoli rRNA inh RFP,RanGTP-Impb inh,MLL AF4-AF9 inh,Bfl-1 A1 inh,Vif TR-FRET,Calb FLC,Ecoli rRNA inh OD600,Beta apoptosis,T cruzi inh
CCOC(=O)c1cccc(NC(=O)c2cnccn2)c1,nt,nt,nt,nt,0.8,-4%,18,nt,-4,-2
O=C(COc1ccccc1)NCCSc1ccccc1,nt,nt,1.8,nt,2.0,-1%,-6,nt,-1,-2
COc1ccc(C2NCCc3sccc32)cc1 (stereo unspecified),16,-0.2,1.1,0.1,-0.3,nt,6,9,-10,6
CCCCOC(=O)c1ccc(NC(=O)CSC2=Nc3ccccc3C3CC=NN23)cc1 (stereo unspecified),nt,nt,3.7,nt,0.1,-5%,5,nt,2,33
Cc1cnc(C(=O)OCC(=O)c2ccc[nH]2)cn1,10,1.3,5.4,1.8,-0.3,2%,2,15,-5,-21
Fc1ccc(Nc2c(-c3ccco3)nc3ccccn23)cc1,nt,nt,1.0,nt,0.8,2%,2,nt,-4,14

Not all compounds are listed; count on the stated rates, not on these rows.
